BJeLR lethal: MLPCN primary cell-based screen for lethality selective to Ras in HRASV12 cells; BJeLR (HRASV12) viability, CellTiter-Glo ATP luminescence, 48 h; reference of the scale not given here; inhibition, % (no concentration beside the values); hit rate 0.17% among 300,000; AID 1554, 2009;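 active = replicate mean above 50%; inconclusive = above 50% but judged a plate artefact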;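 note: 50 nL library stock added to about 25 µL; numbers are from one replicate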
Bead autofluor: flagged as autofluorescent in microsphere protease counterscreen | hit rate 3.1% among 360,000 | fluorescence intensity (no concentration beside the values) | AID 624483 | compound autofluorescence counterscreen, microsphere flow cytometry; stronger effect = higher value;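 active = at least 3 SD above the mean of all compounds, about 16000 in these data; inconclusive = too few beads counted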;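 note: 100 nL of 1 mM stock went into each well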
RN4220 kill: growth inhibition of S. aureus RN4220, primary screen, OD600 | AID 1259311, 2017 | hit rate 0.33% among 330,000 | 16 h | inhibition, % (no concentration beside the values);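 active = z-score of -3 or lower and OD600 up to 0.18 on both plates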;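 note: plate controls were untreated cells for no effect and reference antibiotic for full effect; stock transfer was 100 nL into about 80 µL; one replicate is shown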
ugtP null kill: growth inhibition of ugtP-null S. aureus, primary screen, RN4220 ugtP deletion, OD600; 16 h; some inactives read as strong as hits; growth inhibition, % (no concentration beside the values); hit rate 0.54% among 330,000; AID 1259309, 2017;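 active = z-score under -3 and OD600 up to 0.15 on both plates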;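 note: plate controls were untreated wells for no effect and antibiotic for full effect; wells of about 80 µL received 100 nL stock; the first replicate is given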
PrP UTR inh: inhibition of PrP 5' UTR reporter expression. hit rate 0.35% among 340,000. cell-based PrP 5' UTR mRNA reporter, plate reader. inhibition, % (test concentration not listed);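 active = every replicate at 50% or more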;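 note: 0 = median of the neutral control wells; tested in H4 reporter cells; numbers are from one replicate; inactives centre near -14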
Mtb hypoxia inh: PubChem AID 1159583; M. tuberculosis hypoxia-regulated fluorescent reporter, fluorescence; fluorescence inhibition, % (concentration not given with the values); hit rate 0.1% among 300,000;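 active = 35 to 45% if threefold the growth effect, above 45% if 1.5-fold the growth effect; inactive = the rest, general growth blockers included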;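 note: wells of about 50 µL received 100 nL stock; 0% = vehicle wells and 100% = reference inhibitor wells; whole bacteria with a GFP reporter of the hypoxia response; strong numbers were not always called active; many hits fall short of the cut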
Mtb hypoxia inh growth: further read-out of Mtb hypoxia inh, marked with its call; growth inhibition, %; measured here: M. tuberculosis growth (absorbance);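 0% = vehicle and 100% = reference antibiotic; read after six days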
Numbers without * were called inactive; ? = inconclusive; nt = not tested or not shown.

| compound | ugtP null kill | Bead autofluor | BJeLR lethal | RN4220 kill | Mtb hypoxia inh | PrP UTR inh | Mtb hypoxia inh growth |
| --- | --- | --- | --- | --- | --- | --- | --- |
| COC(=O)c1ccc(S(=O)(=O)NCc2ccc(OC)cc2)n1C | 5 | 6164 | -6 | -0.7 | 19 | -16 | 13 |
| CC(=O)Nc1c(C(=O)N2CCOCC2)sc2nc3c(cc12)COC(C)(C)C3 | 1 | 8163 | 2 | 2.8 | 16 | -24 | 15 |
| CC(CN1CCOCC1)OC(=O)c1cccs1 (stereo not drawn) | 7 | 2420 | 2 | 8.7 | -7 | -13 | 0 |
| O=C(CNc1ccc2ccccc2c1)NN=Cc1ccc(OC(=O)/C=C/c2ccco2)cc1 | -8 | nt | nt | -5.7 | 3 | nt | 3 |
| CCn1c(=O)c2cc(C(=O)N3CCN(C)CC3)sc2c2ccccc21 | 0 | 5214 | -7 | -14 | 3 | -1 | 3 |
| Cn1cnnc1SCC(=O)Nc1ccccc1 | 3 | 5422 | -1 | 2.8 | 5 | -20 | 13 |
| CN(Cc1c(C(=O)N2CCCCCCC2)nc2ccc(Cl)cn12)C1CCOC1 (stereo not drawn) | 7 | 6912 | 0 | -0.4 | 10 | -14 | 1 |
| COC(=O)NC1c2ccccc2Oc2ccc(C)cc21 (stereo not drawn) | 14 | 2906 | -2 | 2.3 | 6 | -15 | 7 |
| C=CCSc1nc2c(cnn2-c2ccc(C)c(C)c2)c(=O)[nH]1 | 7 | 5039 | 8 | 2.9 | 7 | -20 | 8 |
| Cc1ccc(-n2ncc3c2CC(C)(C)CC3NC(=O)c2ccc[n+]([O-])c2)cc1 (stereo not drawn) | 4 | 5219 | -2 | -1.5 | 11 | -20 | -16 |
| COc1cccc(NC(=O)c2c(F)cccc2F)c1 | 0 | 3638 | nt | 0.2 | 6 | -17 | 2 |
| COCCNc1nc(C)cc(-c2cc(C(=O)NC3CCCC3)on2)n1 | -1 | 3987 | 11 | 4.4 | 14 | -25 | 14 |
| Cc1cc(C)c2c(=O)[nH]n(C3CC(C)N(C)CC3C)c2n1 (stereo not drawn) | 3 | 5082 | -1 | 3.6 | 4 | -23 | 3 |
| COCCN(CC(=O)Nc1cccc(C)c1C)C(=O)Cc1ccsc1 | 6 | ? | nt | 2.1 | 9 | -13 | 2 |
| CCC(=O)N1C(=O)C2(Nc3ccccc3N2)c2ccccc21 | 4 | nt | -12 | 9.3 | 5 | nt | 4 |
| C[N+]12CCCCC1[C@@H](CO)CCC2 (stereo partly drawn) | 4 | 4617 | 8 | 1.7 | -6 | nt | 2 |
| CCN(CC)C(=O)CSc1nnc([C@@H](NC(=O)OC(C)(C)C)C(C)C)o1 | 10 | 17771* | 4 | 5.5 | 0 | -6 | 5 |
| C#CC(CC)(CC)NC(=O)Nc1ccc(OCC)cc1 | 5 | 2253 | 5 | 1.4 | -1 | -16 | 13 |
| CN(C)c1c(F)cc(C(=O)NCc2ccccc2)cc1F | 7 | 3994 | 0 | -3.2 | 18 | -25 | 20 |
| CC(C)(C)C1CCC(C(=O)NCC(c2cccs2)N2CCOCC2)CC1 (stereo not drawn) | 0 | 4794 | 10 | 5.5 | 5 | -9 | 4 |
| O=C(NCCN1CCCCCC1)C1CCCN1S(=O)(=O)c1cccc2nsnc12 (stereo not drawn) | 2 | 3567 | 8 | 19 | 13 | -4 | -2 |
| CCCOC(=O)c1ccc(-c2ccc(C=O)o2)cc1 | 0 | 2149 | -1 | -1.5 | 5 | -82 | 2 |
| Cc1c(/C=N\NC(=O)c2cc3ccccc3o2)c2ccccc2n1C | nt | 3738 | 14 | nt | nt | -24 | nt |
| COc1ccc(N2CCN(CCNC(=O)c3c(C)cc(=O)oc3C)CC2)cc1 | -2 | 10530 | 14 | 0.0 | 6 | -41 | 2 |
| O=C(CCc1c[nH]c2ccccc12)N1CCN(S(=O)(=O)c2ccccc2)CC1 | 4 | ? | 10 | 3.9 | 7 | -27 | 7 |
| NS(=O)(=O)c1ccc2ccccc2c1 | 4 | ? | 3 | 8.6 | 13 | -6 | 10 |
| CCN(CC)S(=O)(=O)c1cc([N+](=O)[O-])ccc1NNC(=O)Nc1ccc(Cl)c(Cl)c1 | -12 | 2742 | 13 | -4.2 | nt | 0 | nt |
| OCCN(Cc1ccccc1)Cc1ccc(F)c(F)c1 | -2 | 20266* | -7 | 5.3 | 9 | -14 | 0 |
| c1csc(-c2csc3ncnc(NCCCN4CCOCC4)c23)c1 | -5 | 11007 | 5 | 3.4 | 2 | -4 | 15 |
| O=C(c1cccc(N2CCCC2=O)c1)N1CCC2(CC1)OCCO2 | 4 | 5085 | -1 | 2.4 | nt | -10 | nt |

Another view of four compounds above:
The line under a structure holds: ugtP null kill | Bead autofluor | BJeLR lethal | RN4220 kill | Mtb hypoxia inh | PrP UTR inh | Mtb hypoxia inh growth
C#CC(CC)(CC)NC(=O)Nc1ccc(OCC)cc1
    5 | 2253 | 5 | 1.4 | -1 | -16 | 13
O=C(NCCN1CCCCCC1)C1CCCN1S(=O)(=O)c1cccc2nsnc12 (stereo not drawn)
    2 | 3567 | 8 | 19 | 13 | -4 | -2
CCN(CC)S(=O)(=O)c1cc([N+](=O)[O-])ccc1NNC(=O)Nc1ccc(Cl)c(Cl)c1
    -12 | 2742 | 13 | -4.2 | nt | 0 | nt
c1csc(-c2csc3ncnc(NCCCN4CCOCC4)c23)c1
    -5 | 11007 | 5 | 3.4 | 2 | -4 | 15

A section from further up:
| compound | ugtP null kill | Bead autofluor | BJeLR lethal | RN4220 kill | Mtb hypoxia inh | PrP UTR inh | Mtb hypoxia inh growth |
| --- | --- | --- | --- | --- | --- | --- | --- |
| O=C(CCc1c[nH]c2ccccc12)N1CCN(S(=O)(=O)c2ccccc2)CC1 | 4 | ? | 10 | 3.9 | 7 | -27 | 7 |
| NS(=O)(=O)c1ccc2ccccc2c1 | 4 | ? | 3 | 8.6 | 13 | -6 | 10 |
| CCN(CC)S(=O)(=O)c1cc([N+](=O)[O-])ccc1NNC(=O)Nc1ccc(Cl)c(Cl)c1 | -12 | 2742 | 13 | -4.2 | nt | 0 | nt |
| OCCN(Cc1ccccc1)Cc1ccc(F)c(F)c1 | -2 | 20266* | -7 | 5.3 | 9 | -14 | 0 |
| c1csc(-c2csc3ncnc(NCCCN4CCOCC4)c23)c1 | -5 | 11007 | 5 | 3.4 | 2 | -4 | 15 |

Next part:
| compound | ugtP null kill | Bead autofluor | BJeLR lethal | RN4220 kill | Mtb hypoxia inh | PrP UTR inh | Mtb hypoxia inh growth |
| --- | --- | --- | --- | --- | --- | --- | --- |
| COc1ccc(-n2c(SCc3nnc(-c4ccccc4)o3)nnc2-c2ccccc2)cc1 | -5 | 10088 | -9 | 15 | -4 | -14 | 10 |
| CC(=NNC(=O)c1cccnc1)c1cc2ccccc2o1 | 6 | nt | nt | 0.5 | 7 | nt | 2 |
| Cc1cccc(N(C(=O)CCC(=O)Nc2cc(C)on2)C(C(=O)NC2CCCC2)c2ccncc2)c1 (stereo not drawn) | 3 | 4103 | -3 | 2.1 | nt | -12 | nt |
| CCc1cc2c(=O)n(-c3ccccc3)c(=S)[nH]c2s1 | 0 | 6682 | -5 | 1.7 | 4 | nt | 7 |
| CN(c1cccc2cccnc12)S(=O)(=O)c1ccccc1 | -5 | 4181 | -3 | 4.2 | 3 | -17 | 2 |
| COc1cccc(C=Nn2c(=S)n(C)c3cc(C)c(C)cc32)c1OC | 21 | nt | nt | 0.4 | 2 | nt | 5 |
| CC(=O)Nc1cccc(OCc2ccc(F)cc2)c1 | 12 | 2611 | -6 | 8.0 | 11 | -31 | 5 |
